Sa RN4220 lethal: S. aureus RN4220 growth inhibition. AID 1259311. OD600, 16 h. actives 0.33% (n = 330,000). inhibition, % (concentration not given with the values);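 active = z-score of -3 or lower and OD600 up to 0.18 on both plates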;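 also: plate controls were untreated cells for no effect and reference antibiotic for full effect; stock transfer was 100 nL into about 80 µL; one replicate is shown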
PrP UTR inh: suppresses PrP 5' UTR mRNA reporter expression; cell-based PrP 5' UTR mRNA reporter, plate reader; inhibition, % (concentration not given with the values); actives 0.35% (n = 340,000);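 active = every replicate at 50% or more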;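 also: 0 = median of the neutral control wells; tested in H4 reporter cells; numbers are from one replicate; inactives centre near -14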
ugtP null kill: kills S. aureus RN4220 lacking UgtP; S. aureus RN4220 ugtP deletion, OD600 growth, 16 h; some inactives read as strong as hits; growth inhibition, % (concentration not given with the values); actives 0.54% (n = 330,000); AID 1259309;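 active = z-score under -3 and OD600 up to 0.15 on both plates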;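 also: plate controls were untreated wells for no effect and antibiotic for full effect; wells of about 80 µL received 100 nL stock; the first replicate is given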
BJeLR lethal: kills HRASV12-expressing BJeLR cells; inhibition, % (test concentration not listed); BJeLR (HRASV12) viability, CellTiter-Glo ATP luminescence, 48 h; reference of the scale not given here; actives 0.17% (n = 300,000);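 active = replicate mean above 50%; inconclusive = above 50% but judged a plate artefact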;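 also: 50 nL library stock added to about 25 µL; numbers are from one replicate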
Bead autofluor: compound fluorescence in toxin protease inhibitor counterscreen | actives 3.1% (n = 360,000) | compound autofluorescence counterscreen, microsphere flow cytometry; hits give high values | fluorescence intensity (test concentration not listed) | AID 624483;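 active = at least 3 SD above the mean of all compounds, about 16000 in these data; inconclusive = too few beads counted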;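 also: 100 nL of 1 mM stock went into each well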
Mtb hypoxia rep: reduces hypoxia-regulated biosensor signal in M. tuberculosis; fluorescence inhibition, % (no concentration beside the values); actives 0.1% (n = 300,000); M. tuberculosis hypoxia-regulated fluorescent reporter, fluorescence;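 active = 35 to 45% if threefold the growth effect, above 45% if 1.5-fold the growth effect; inactive = the rest, general growth blockers included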;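 also: wells of about 50 µL received 100 nL stock; 0% = vehicle wells and 100% = reference inhibitor wells; whole bacteria with a GFP reporter of the hypoxia response; strong numbers were not always called active; many hits fall short of the cut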
Mtb hypoxia rep growth: second read-out of Mtb hypoxia rep, no call of its own (marks repeat the call); growth inhibition, %; measured here: M. tuberculosis growth (absorbance);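 0% = vehicle and 100% = reference antibiotic; read after six days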
An asterisk follows results filed as active; u = inconclusive; x = no result given.

SMILES	Sa RN4220 lethal	PrP UTR inh	ugtP null kill	BJeLR lethal	Bead autofluor	Mtb hypoxia rep	Mtb hypoxia rep growth
CCOC(=O)C(C(=O)OCC)C(C)(C)C(C)=NNc1ccc([N+](=O)[O-])cc1[N+](=O)[O-]	9.4	x	2.5	x	x	8.2	6.9
CCOC(=O)c1c(/N=C/c2ccccc2O)sc2c1CCC2	x	-5.4	x	-0.9	7784	x	x
O=C(Nc1ccc(S(=O)(=O)Nc2nccs2)cc1)C1=NN(c2ccccc2)C(=O)CC1	2.3	-19.4	3.0	2.0	3939	16.4	27.0
CCN(CC)S(=O)(=O)c1cccc(C(=O)Nc2ccccc2)c1	4.1	-43.8	-1.3	9.6	9825	7.5	11.4
Cc1sc2ncnc(N3CCN(CCOc4ccc(Cl)cc4)CC3)c2c1C	2.0	x	3.2	31.3	11743	6.8	4.1
O=C(OCC(=O)N1CCc2ccccc21)c1cccnc1Cl	4.2	-73.6	0.1	11.9	10894	4.0	8.2
O=C1CN(C(=O)c2ccc(Br)o2)C(c2ccccc2)c2cc(Br)ccc2N1 (stereo not drawn)	-2.1	-7.2	-6.3	0.1	4580	-8.9	3.3
CN(C)c1ccc(N2C(=NC(=O)c3ccccc3)SC3CS(=O)(=O)CC32)cc1 (stereo not drawn)	2.0	-20.4	5.7	9.8	5826	2.1	6.2
Cc1ccc(NC(=O)c2ccc(CSc3nnc(-c4ccncc4)n3C)cc2)c(C)c1	-17.3	-19.8	-7.7	-4.7	2961	6.3	3.8
Cc1onc(-c2ccccc2Cl)c1C(=O)Oc1cc(N)n(S(=O)(=O)c2ccc(F)cc2)n1	3.2	-15.8	-5.4	x	4374	x	x
COc1ccc(CCNc2cc(C)[nH]c(=O)c2)cc1OC	0.0	-21.0	7.9	15.9	3336	0.8	8.0
CCOC(=O)c1c(NC(=S)Nc2cccc(C)c2)sc2c1CC(C)(C)SC2	-2.6	-17.6	7.8	-5.3	5957	5.7	4.9
COc1cccc(CN2CC(C(=O)NCCN3CCOCC3)CCC2=O)c1 (stereo not drawn)	5.6	-6.7	7.7	1.4	5267	5.1	1.5
Cc1cc(C)c2c(C)[nH]nc2n1	1.1	x	7.6	-0.3	4423	23.1	8.5
COc1cc2sc3ccc(-c4ccc(N(C)C)nc4)cc3c(=O)c2cc1OC	3.7	x	3.9	9.9	x	-5.5	-0.9
COc1ccc(S(=O)(=O)NCC2CCCN(C(=O)CSC)C2)cc1 (stereo not drawn)	4.2	-20.5	6.1	-5.4	4035	-5.0	9.0
O=C(NCCCl)Nc1ccc(Cl)c([N+](=O)[O-])c1	-2.8	-29.5	-1.5	-4.0	4340	-3.3	-2.5
O=[N+]([O-])c1cc(C(F)(F)F)ccc1NN=C1CCCC1	x	-32.5	x	1.1	10255	x	x
O=C(/C=C/c1ccc(F)cc1)NC(=S)N1CCN(c2ccccn2)CC1	-0.3	-33.3	1.5	3.8	x	-1.9	-4.0
CCCS(=O)(=O)NCc1cn2cccc(C)c2n1	1.5	-29.3	2.4	-2.4	9905	1.7	-4.9
Cc1ccc(-c2cc(C(F)F)nc(N3CCC(C)CC3)n2)cc1	-5.0	-1.1	91.4*	-13.1	9249	0.3	3.6
C=C(C)CSc1nc2nc(C)c(Br)cc2[nH]1	-0.4	-25.7	-9.6	4.6	22023*	-0.1	3.2
COCCC(=O)N1CCC(Oc2ccc(C(=O)N(C)C3CCCCC3)cc2)CC1	2.4	-17.4	2.7	2.2	x	13.7	11.4
O=C(O)c1cccc(-c2ccc(/C=N/Nc3ccc([N+](=O)[O-])cc3)o2)c1	x	-14.4	x	15.4	3994	x	x
COC(=O)c1ccc2nc(C)cc(Nc3ccc(N(C)C)cc3)c2c1	1.8	8.4	12.3	13.7	5720	x	x
O=C(CSc1nnc(COc2ccc3c(c2)CCCC3)o1)Nc1ccc(F)cc1	1.0	-18.1	-1.3	-2.9	13066	5.1	13.9
COc1ccc(N(C(=O)c2cccc(OC)c2OC)C2C=CS(=O)(=O)C2)cc1 (stereo not drawn)	10.9	-37.9	6.6	0.6	6821	14.8	11.2
CC(C)CC(NC(=O)c1nc[nH]c1C(=O)NC(CCCCNC(=O)OC(C)(C)C)C(=O)OC(C)(C)C)C(=O)OCc1ccccc1 (stereo not drawn)	-3.8	x	3.5	x	x	-3.3	3.1
CCC(CO)Oc1cc(NCc2cccnc2)c2ncn(C(C)C)c2c1 (stereo not drawn)	6.6	2.8	3.7	x	3091	2.8	11.2
COc1ccc(C2SCC(C(=O)O)N2C(C)=O)cc1 (stereo not drawn)	8.1	-19.0	7.3	17.0	9670	14.8	11.6
COCCNC(=O)c1cccc(OC2CCN(Cc3ccc(C(=O)OC)cc3)CC2)c1	-1.3	-14.5	-7.2	-5.3	4297	-10.0	5.5
Oc1ccc(Nc2nc(-c3ccccc3F)nc3ccccc23)cc1	-1.6	-4.1	-0.2	3.9	3861	1.4	4.2
CC1=C(C)C(=NOS(=O)(=O)c2ccccc2)C=CC1=O	4.9	x	8.9	x	x	15.5	8.9
COc1cccc(NC(=O)C(C)Sc2nnc(C3CC3)n2C2CC2)c1 (stereo not drawn)	-0.4	-14.4	2.6	x	8249	3.6	4.8
CSc1cc(-c2ccccc2)n(Cc2c(Cl)cccc2Cl)c(=O)c1C#N	-0.3	-37.2	-4.9	44.7	2204	x	x
CCc1ccccc1NC(=O)CN1CCN(C(=O)CNC(=O)c2ccc(N3CCCC3=O)cc2)CC1	6.8	-27.6	5.2	x	3809	4.3	0.2
COc1ccc(OC)c(NC(=O)c2cc3c(=O)n4ccccc4nc3n2C)c1	-8.8	-16.7	5.7	5.9	4166	8.0	15.0
CC1CCN(C(=O)CSc2nc(=O)n3ccccc3n2)CC1	3.2	-9.1	-0.2	-1.4	x	-4.7	-9.8
CCc1ccc(C(=O)OCC(=O)NC2CCCC2)cc1	3.0	-16.2	8.2	-5.1	3139	18.6	12.3
O=C(Cc1ccccc1)c1nc2ccccc2s1	6.3	-15.4	14.2	1.6	7636	0.8	1.0
COc1ccc(CCNC(=O)CCCCC(=O)NCCc2ccc(OC)c(OC)c2)cc1OC	2.5	-14.0	9.3	4.8	6079	14.1	8.8
Cc1ccc(C)c(OCCC(=O)N2CCN(S(=O)(=O)c3cc(F)ccc3F)CC2)c1	7.6	-9.4	-0.3	x	4464	4.0	9.9
COc1ccc(OC)c(NC(=O)C2C(C(=O)O)C3(Cl)C(Cl)=C(Cl)C2(Cl)C3(Cl)Cl)c1 (stereo not drawn)	8.3	-58.0	-9.1	-0.7	4465	-2.8	-5.2
CC(C)CCN1CCC(n2nccc2NC(=O)c2ccc3c(c2)OCO3)CC1	4.4	-9.1	3.8	4.0	5933	6.6	2.9
CCc1ccc(NC(=O)COC(=O)CC2CCCC2)cc1	3.6	-23.4	3.2	x	3947	14.0	6.1

Laid out differently: entries from further up
Screens in order – Sa RN4220 lethal	PrP UTR inh	ugtP null kill	BJeLR lethal	Bead autofluor	Mtb hypoxia rep	Mtb hypoxia rep growth
Oc1ccc(Nc2nc(-c3ccccc3F)nc3ccccc23)cc1
  -1.6	-4.1	-0.2	3.9	3861	1.4	4.2
CC1=C(C)C(=NOS(=O)(=O)c2ccccc2)C=CC1=O
  4.9	x	8.9	x	x	15.5	8.9
COc1cccc(NC(=O)C(C)Sc2nnc(C3CC3)n2C2CC2)c1 (stereo not drawn)
  -0.4	-14.4	2.6	x	8249	3.6	4.8
CSc1cc(-c2ccccc2)n(Cc2c(Cl)cccc2Cl)c(=O)c1C#N
  -0.3	-37.2	-4.9	44.7	2204	x	x
CCc1ccccc1NC(=O)CN1CCN(C(=O)CNC(=O)c2ccc(N3CCCC3=O)cc2)CC1
  6.8	-27.6	5.2	x	3809	4.3	0.2
COc1ccc(OC)c(NC(=O)c2cc3c(=O)n4ccccc4nc3n2C)c1
  -8.8	-16.7	5.7	5.9	4166	8.0	15.0
CC1CCN(C(=O)CSc2nc(=O)n3ccccc3n2)CC1
  3.2	-9.1	-0.2	-1.4	x	-4.7	-9.8
CCc1ccc(C(=O)OCC(=O)NC2CCCC2)cc1
  3.0	-16.2	8.2	-5.1	3139	18.6	12.3
O=C(Cc1ccccc1)c1nc2ccccc2s1
  6.3	-15.4	14.2	1.6	7636	0.8	1.0
COc1ccc(CCNC(=O)CCCCC(=O)NCCc2ccc(OC)c(OC)c2)cc1OC
  2.5	-14.0	9.3	4.8	6079	14.1	8.8
Cc1ccc(C)c(OCCC(=O)N2CCN(S(=O)(=O)c3cc(F)ccc3F)CC2)c1
  7.6	-9.4	-0.3	x	4464	4.0	9.9
COc1ccc(OC)c(NC(=O)C2C(C(=O)O)C3(Cl)C(Cl)=C(Cl)C2(Cl)C3(Cl)Cl)c1 (stereo not drawn)
  8.3	-58.0	-9.1	-0.7	4465	-2.8	-5.2
CC(C)CCN1CCC(n2nccc2NC(=O)c2ccc3c(c2)OCO3)CC1
  4.4	-9.1	3.8	4.0	5933	6.6	2.9
CCc1ccc(NC(=O)COC(=O)CC2CCCC2)cc1
  3.6	-23.4	3.2	x	3947	14.0	6.1

Exported field by field: two of the compounds above
CSc1cc(-c2ccccc2)n(Cc2c(Cl)cccc2Cl)c(=O)c1C#N
  Sa RN4220 lethal = -0.3
  PrP UTR inh = -37.2
  ugtP null kill = -4.9
  BJeLR lethal = 44.7
  Bead autofluor = 2204
  Mtb hypoxia rep = x
  Mtb hypoxia rep growth = x
CCc1ccccc1NC(=O)CN1CCN(C(=O)CNC(=O)c2ccc(N3CCCC3=O)cc2)CC1
  Sa RN4220 lethal = 6.8
  PrP UTR inh = -27.6
  ugtP null kill = 5.2
  BJeLR lethal = x
  Bead autofluor = 3809
  Mtb hypoxia rep = 4.3
  Mtb hypoxia rep growth = 0.2

Remaining list, next part
SMILES	Sa RN4220 lethal	PrP UTR inh	ugtP null kill	BJeLR lethal	Bead autofluor	Mtb hypoxia rep	Mtb hypoxia rep growth
CCN(CC)CCNC(=O)c1ccc(NC(=O)C2CCN(c3ncnc4sc(C)c(C)c34)CC2)cc1	2.5	8.5	10.2	6.2	4012	5.5	-1.5
Cc1cc(C)n(CC2CC(=O)N(c3ccc(Cl)c(Cl)c3)C2=O)n1 (stereo not drawn)	-0.1	-12.9	-3.8	-18.7	4978	x	x
Cc1ccc(NC(=O)C2CSC3(C)CCC(=O)N23)cc1S(=O)(=O)N1CCOCC1 (stereo not drawn)	2.9	-18.8	4.4	x	6196	-2.7	-1.7
Cc1ccccc1NC(=O)/C(=C/c1ccccc1)c1ccccc1	-16.5	-26.9	-0.2	-3.7	2624	13.0	6.1
Cc1csc(=O)n1CCC(=O)OCC(=O)NNC(=O)c1ccccc1	1.2	-9.7	2.0	-5.6	u	0.8	10.3
CCc1nnc(NC(=O)CSc2nnc(-c3ccc(S(=O)(=O)N4CCCC4)cc3)n2CC)s1	2.8	-17.5	-0.4	1.7	9021	14.3	1.4
O=S(=O)(c1ccc(NC(=S)NCc2ccco2)cc1)N1CCCC1	4.9	1.6	2.3	-0.6	2080	6.0	13.5
COC(=O)Nc1ccc(S(=O)(=O)NCCO)cc1	7.8	-2.5	6.8	-9.2	18225*	9.6	3.4
Cc1ccc(N2CC(C(=O)Nc3nccs3)CC2=O)cc1 (stereo not drawn)	4.5	-3.1	3.4	-0.8	8088	3.3	4.1
CCOc1ccc(/C(O)=C2/C(=O)C(=O)N(c3ncccn3)C2c2ccccc2)cc1 (stereo not drawn)	1.2	-33.2	6.8	9.1	2067	18.3	-6.5
CCCN1C(=O)/C(=N\OCC(=O)NCC(F)(F)F)c2ccccc21	x	-14.5	x	1.5	2447	x	x
Cc1cc(C)nc(-n2nc(C)cc2NC(=O)CN2CCc3ccccc3C2)n1	-3.6	-7.0	-7.0	0.0	12862	-0.6	2.2
COc1ccc(CCNC(=O)C2CCCN(S(=O)(=O)c3ccccc3)C2)cc1 (stereo not drawn)	2.2	-18.3	3.0	-1.7	5316	8.6	2.9
CCOC(=O)c1ccc2c(c1)nc(SC/C(O)=C(\C#N)c1nc3ccccc3[nH]1)n2CC	x	-12.2	x	-2.4	4551	x	x
Cc1onc(-c2ccccc2)c1C(=O)Nc1cccnc1	4.9	-12.4	2.3	0.7	2427	4.4	5.4

Screens from PubChem BioAssay.
